D2 PAM = human D2 receptor positive allosteric modulation; P14416; DiscoveRx D2 beta-arrestin cells, luminescence, 90 min; 100% = 57 uM dopamine signal; potentiation, % (test concentration not listed); 360,000 tested, 0.23% active; active = potentiation of 50% or more; inconclusive = 30% to 50%; inactive = 30% or less;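 also: compound concentration not given in the record; tested on top of an EC20 dose of dopamine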
Target sequence (P14416 whole entry, looked up): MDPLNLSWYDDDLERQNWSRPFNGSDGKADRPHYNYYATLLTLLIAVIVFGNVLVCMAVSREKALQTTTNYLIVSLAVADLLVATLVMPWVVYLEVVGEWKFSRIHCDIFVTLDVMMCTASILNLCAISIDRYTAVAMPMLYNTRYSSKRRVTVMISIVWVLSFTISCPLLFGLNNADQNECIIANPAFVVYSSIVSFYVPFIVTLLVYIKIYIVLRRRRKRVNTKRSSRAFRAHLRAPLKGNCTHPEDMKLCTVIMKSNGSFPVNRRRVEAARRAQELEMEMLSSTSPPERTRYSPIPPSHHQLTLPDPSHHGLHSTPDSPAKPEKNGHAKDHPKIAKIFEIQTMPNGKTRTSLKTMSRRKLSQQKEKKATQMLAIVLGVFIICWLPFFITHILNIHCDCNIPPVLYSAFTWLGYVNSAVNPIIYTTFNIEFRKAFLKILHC
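PathHunter beta-arrestin assay in DiscoveRx D2 cells. Compounds were added with an EC20 of dopamine (50 nM final) for 90 min at 37 deg C. Luminescence was read 1 h after detection reagent, with 57 uM dopamine as the EC100 control.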
D2 ag = activates the human D2 dopamine receptor; AID 624465; 360,000 tested, 0.084% active; activation, % (test concentration not listed); P14416; DiscoveRx PathHunter D2 beta-arrestin, luminescence, 90 min; 100% = 57 uM dopamine signal; in the data active = activation above about 40%; inconclusive = about 15% to 40%; inactive = below about 15%; also: compound concentration not given in the record; the text of the record calls up to 30% inactive
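Agonist mode: compounds alone added to overnight-plated D2 PathHunter cells for 90 min at 37 C, with 57 uM final dopamine (EC100) defining full response. Beta-arrestin recruitment detected by chemiluminescent reagent, read after 1 h at ambient temperature.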
Sfp inh = inhibitors of Bacillus subtilis Sfp phosphopantetheinyl transferase. Q9F4F7. Biochemical Sfp PPTase activity, qHTS. Potency, µM, without a hit: max response, negative = inhibition, hits mostly inhibitors. 310,000 tested, 3.5% active. AID 1490; active = well fitted inhibition curve with a large enough effect; inconclusive = small, poorly fitted or top-dose-only effect, or another doubt; inactive = no such curve, though single readings can be large or run the other way;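 also: the enzyme is Sfp with the accession as filed and its product quenches rhodamine fluorescence; potency is read from the fitted curve at half-maximal effect; 0% = enzyme reaction without inhibitor and -100% = no enzyme wells; top concentration of the series not given in the record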
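Fluorescence-quenching assay: 15 nM Sfp-PPTase preincubated 15 min at room temperature with compound, then 5 uM rhodamine-CoA and 12.5 uM BHQ-2-labelled YbbR peptide added. Fluorescence (ex 525/em 598 nm) read at start and after 30 min; difference gives rate.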
PINK1 expr mod = changes PINK1 expression | PINK1 immunofluorescence, high-content cytometry, 24 h | 410,000 tested, 0.2% active | Potency, µM (doses to about 76.6 µM), without a hit: at the highest dose activation (PINK1 increase), actives largely listed as activators; active = well fitted activation curve with a large enough effect; inconclusive = small, poorly fitted or top-dose-only effect; inactive = flat fitted curve, though single readings scatter; cell line not stated here;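 also: potency is read from the fitted curve at half-maximal effect; % of control where 0% means no effect; nearly all actives have a fitted effect of over 65% in size; a mitochondrial uncoupler was the plate control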
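Compound titrations (5 concentrations, 24 h) on a stable cell line; DMSO and CCCP controls. Endpoint: fixed-cell PINK1 immunofluorescence with mitochondrial, cell and nuclear markers, scanned by microplate cytometer.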
CtBP-E1A blk = inhibitors of CtBP/E1A interaction; AlphaScreen GST-E1A/His-CtBP binding, 1536-well; stronger effect = lower value; control for the full effect not named in the record; activity change, % (test concentration not listed); 340,000 tested, 0.49% active; in the data active means activity change below about -65%; inconclusive means about -30% to -65%; inactive means above about -30%; also: % is scaled to controls: 0 for no effect and ±100 for the full control effect; compound concentration not given in the record
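Protein mix (5X: 125 nM each GST-E1A, His-CtBP) was incubated with pinned compound 2 h at 37 deg C in dark, in 50 mM Tris pH 8.0 buffer with 300 mM NaCl. Glutathione donor and nickel acceptor beads followed; AlphaScreen signal read after 1 h.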
TRPV1 potentiator = enhances activation of the human vanilloid receptor TRPV1; Q8NER1; TRPV1-expressing cells, Fluo-8 calcium influx, capsaicin EC20 potentiation; host cell line not named in the record; control for the full effect not named in the record; potentiation, % at 8.33 µM; 320,000 tested, 0.02% active; AID 540277; active means potentiation above 80%; inconclusive means 30% to 80%; inactive means below 30%; also: 0% is about no effect
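Cells expressing TRPV1 were dye-loaded with Fluo-8 and read kinetically: 10 s baseline, 3 min after compound (agonist portion), then 2 min after EC20 capsaicin (allosteric enhancer portion). Calcium-bound dye fluorescence at 480/520 nm.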
Six1-Eya2 blk = blocks human Six1 binding to Eya2. Q15475+O00167. AlphaScreen GST-Six1/His-Eya2 binding, biochemical; stronger effect = lower value; control for the full effect not named in the record. activity change, % (concentration not given with the values). 360,000 tested, 0.56% active. AID 651725; in the data active = activity change below about -65%; inconclusive = about -30% to -65%; inactive = above about -30%; also: % is scaled to controls: 0 for no effect and ±100 for the full control effect
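Compounds are tested against tagged Six1 and Eya2 proteins bridged by glutathione donor and nickel acceptor beads; after a one-hour incubation at 37 °C without light, AlphaScreen emission is recorded.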
* marks the source's active call; other numbers are inactive results; ? = inconclusive; / = no result given; & = joins results of further samples; [ ] = another dose, or the depositor's remark.

Each structure is followed by: D2 ag, Six1-Eya2 blk, D2 PAM, CtBP-E1A blk, Sfp inh, PINK1 expr mod, TRPV1 potentiator
1	Cc1[nH]nc(Nc2ccc(O)cc2)c1[N+](=O)[O-]
→ 1.4, -2, -10, /, 29%, -0.7%, 7
2	N#CCOc1ccc(C2=NO[C@@H]3[C@@H]4C[C@@H]([C@H]5C(=O)N(c6ccc7c(c6)OCO7)C(=O)[C@@H]45)[C@H]23)cc1
→ 4.3, 1, -2, -5, 10%, -0.8%, 1
3	FC(F)(F)c1ccnc(N2CCN(Cc3cnc(-c4ccccc4)[nH]3)CC2)c1
→ 1.3, -17, -20, -8, 12%, -1.0%, /
4	COCc1cc(C)nc2sc(C(=O)NN)c(-n3cccc3)c12
→ -2.5, -1, -3, -6, 1%, 9.0%, 13
5	Cc1cc(C)c2nc(-c3cccnc3)cc(C(=O)NC(C)c3cnn(C)c3C)c2c1 (stereo not given)
→ -1.0, -12, -9, 13, 15%, 5.2%, 22
6	O=C(Nc1ccccc1)c1ccc[nH]1
→ 4.2, -1, -3, /, 20%, 0.4%, 0
7	CC(NC(=O)c1cc2ccccc2o1)c1cccs1 (stereo not given)
→ 0.9, 6, -9, 6, 6%, -0.1%[38.3 µM], -30
8	NNC(=S)Nc1cc(S(=O)(=O)N2CCOCC2)ccc1N1CCOCC1
→ -5.8, -2, -7, -14, 1%, 3.2%, 5
9	Cc1ccccc1-n1nc(C)c2cc(C(=O)N3CCN(S(=O)(=O)c4ccc(F)cc4)CC3)sc21
→ -0.5, -5, -13, -10, -9%, -1.1%[38.3 µM], -1
10	COc1ccc(OC)c(NC(=O)CC2Oc3ccccc3NC2=O)c1 (stereo not given)
→ 0.1, -3, -10, /, 4%, 0.7%, 17
11	CCOC(=O)N1CCC(N2CC34C=CC(O3)C(C(=O)Nc3ccc(C)cc3)C4C2=O)CC1 (stereo not given)
→ 5.4, 1, -1, 7, 23%, 0.9%, /
12	O=C(c1cccc([N+](=O)[O-])c1)N1CCN(S(=O)(=O)N2CCCCC2)CC1
→ -1.4, 2, 5, -2, 11%, 0.2%, -23
13	CCc1ccc(OCc2nnc(-c3ccccc3Br)o2)cc1
→ -4.7, 31, -7, 34, /, 6.9%, -9
14	Cc1onc(-c2ccccc2)c1-c1csc(N/N=C/c2ccccc2)n1
→ 1.4, -17, -4, -7, -10%, 0.8%, -20
15	O=C(Nc1nnc(SCC(=O)N2CCCCC2)s1)c1ccc(F)cc1F
→ 3.1, 4, 1, 6, 2%, 0.2%, -5
16	Cn1cc(-c2cc(C(=O)O)on2)cn1
→ -3.3, 3, -12, /, 16%, 1.0%, 0
17	CC(C)C[C@@H](CN1CCC[C@@H]1CN1C(=O)C(=O)NC[C@@H]1Cc1ccccc1)N1C[C@H](Cc2ccc(O)cc2)N(CCc2ccccc2)C(=O)C1=O
→ -1.5, -5, -6, -6, /, 1.7%, /
18	CCN(CC)P(=O)(Nc1ccc([N+](=O)[O-])cc1)c1c(C)nn(CCC#N)c1NC(=O)c1ccc(Cl)cc1Cl (stereo not given)
→ -3.9, -3, -9, 6, 11%, 10.0%, 6
19	COc1ccccc1-c1nnc(SCC(=O)Nc2ccc(S(N)(=O)=O)cc2)n1C
→ 2.8, 0, 2, -2, -6%, -2.8%[38.3 µM], 12
20	NC(=S)N/N=C/c1c(O)c(Br)cc2oc3c(c12)CCCC3
→ 4.2, -7, 0, -15, 6%, -2.9%, -8
21	CCCN(CC(=O)Nc1ccccc1C)C(=O)c1cnc(C)cn1
→ -6.5, 0, -17, -4, /, 0.9%, /
22	O=C(Nc1nc(-c2ccccc2)cs1)Nc1ccc(F)cc1F
→ -1.9, -7, -15, 0, -3%, 9.1%, -3
23	COc1ccc(C2NC(=O)NC(O)(C(F)(F)F)C2C(=O)c2ccc(C)cc2)cc1 (stereo not given)
→ -0.9, 2, -4, 9, -2%, /, 4
24	O=C(Nc1ccc(Br)cc1)c1ccc(N2C(=O)C3CCCCC3C2=O)cc1 (stereo not given)
→ -1.4, 10, -10, -2, 12%, 10%, 26
25	COc1ccc2oc(C(=O)NC(C)c3ccccn3)c(C)c2c1 (stereo not given)
→ 0.4, -4, -1, 8, /, 3.4%, /
26	O=C(NCC1OCCCN1S(=O)(=O)c1cc(F)ccc1F)C(=O)NC1CCCCCC1 (stereo not given)
→ -3.9, 10, -9, /, 21%, 1.3%, -3
27	COC(=O)CNC(c1ccccc1)c1cc(Br)ccc1NC(=O)CNC(=O)OCc1ccccc1 (stereo not given)
→ -5.0, -20, -31, -8, 2%, -0.5%, -6
28	COc1cccc(-n2c(COc3ccc(C)cc3)nnc2SCC(N)=O)c1
→ -1.6, 5, -33, 2, -2%, 1.7%[38.3 µM], 14
29	CCC(CC)c1nnc(NC(=O)c2c(-c3ccccc3)noc2C)s1
→ 0.8, -5, -4, 1, 18%, 5.1%, /
30	COc1ccc(CN(C(=O)c2ccco2)c2ccc(C)c(C)c2)cc1
→ -1.7, 12, 2, -18, -5%, 3.4%, -12
31	Cc1ccc(NC(=O)N/C=C/c2ccco2)c(C)c1
→ -2.2, 3, -1, 8, -12%, 11%[38.3 µM], 6
32	CCn1c(CNC(=O)c2ccco2)nnc1SCCOc1ccccc1
→ 3.2, 36, -2, -1, 22%, -0.3%, 12
33	CCN(c1ccccc1)S(=O)(=O)c1ccc(N2CCN(c3ccc(OC)cc3)CC2)nc1
→ 1.5, -1, -2, /, /, 4.8%, /
34	CC(=O)c1ccc(N2CCN(S(=O)(=O)c3cccc4nsnc34)CC2)cc1
→ 0.1, -2, 2, -4, 14%, 0.2%, -4
35	O=C(COC(=O)CCC(=O)c1ccc(F)cc1)Nc1ccc(N2CCOCC2)cc1
→ -1.3, -9, 1, 0, 8%, 3.5%, -5
36	NC(=O)Cn1c(O)c(N=NC(=O)CNC(=O)/C=C/c2ccccc2)c2ccccc21
→ 7.5, -2, 3, -6, -3%, 2.2%, 0
37	O=C(CN1CCCC1)N1c2ccccc2Sc2ccc(Cl)cc21
→ 3.6, -8, -6, /, 3%, -0.5%, 5
38	Cn1nccc1NC(=O)CC1(CC(=O)O)CCCCC1
→ -2.0, 12, -5, 5, 19%, 0.2%, -5
39	CC1(C)CC(NCCN2CCN(C3=CC(=C(C#N)C#N)CC(C)(C)C3)CC2)=CC(=C(C#N)C#N)C1
→ -1.6, -10, -8, 9, 11%, -0.1%, 7
40	Cc1cccc(Cn2c(=O)n(-c3ccc(CC(=O)NCc4ccco4)cc3)c(=O)c3sccc32)c1
→ -3.0, -9, -6, -13, 22µM*, 11%, /

In a second layout: two of the compounds above.
no.	SMILES	D2 ag	Six1-Eya2 blk	D2 PAM	CtBP-E1A blk	Sfp inh	PINK1 expr mod	TRPV1 potentiator
23	COc1ccc(C2NC(=O)NC(O)(C(F)(F)F)C2C(=O)c2ccc(C)cc2)cc1 (stereo not given)	-0.9	2	-4	9	-2%	/	4
28	COc1cccc(-n2c(COc3ccc(C)cc3)nnc2SCC(N)=O)c1	-1.6	5	-33	2	-2%	1.7%[38.3 µM]	14

New compounds follow:
Each structure is followed by: D2 ag, Six1-Eya2 blk, D2 PAM, CtBP-E1A blk, Sfp inh, PINK1 expr mod, TRPV1 potentiator
41	Cc1cc(NS(=O)(=O)c2ccc(NC(=O)Nc3cccc(C(F)(F)F)c3)cc2)no1
→ 3.2, -8, -16, -1, 14%, 2.4%, -18
42	CN(C)c1nc(N2CCN(c3ccccc3)CC2)c(C#N)c(=O)o1
→ -0.1, 0, -2, 2, 0%, /, -3
43	FC(F)Oc1ccc(NC(=S)NC23CC4CC(CC(C4)C2)C3)cc1
→ 4.4, 0, -12, -7, 8%, ?, 8
44	CCCNC(=O)C1(C)CCCN(Cc2c3ccccc3nn2C)C1 (stereo not given)
→ 5.7, -6, 1, 3, /, 0.3%, /
45	CN(C(=O)COC(=O)c1cc(-c2ccccc2Cl)nc2ccccc12)C1CCS(=O)(=O)C1 (stereo not given)
→ 0.3, 7, 0, 7, -3%, 0.7%, -16
46	CN1C(=O)CS(=O)c2ccc(C(=O)NC3CC3)cc21 (stereo not given)
→ -1.8, 4, -5, 1, ?, 0.9%, /
47	N#Cc1cc2cc(Cl)ccc2[nH]c1=O
→ /, -10, /, -2, /, -0.7%, /
48	Cc1ccc(S(=O)(=O)Nc2ccccc2-c2ccccc2NS(=O)(=O)c2ccc(C)cc2)cc1
→ 4.1, -7, 11, -2, 5%, ?, -5
49	COc1ccc(S(=O)(=O)N2CCC(C(=O)N[C@@H](C)C(=O)NC3CC3)CC2)cc1
→ -3.1, 5, -9, 2, 7%, 0.4%, 2
50	CN=C(Nc1cccc(OC)c1)SC1CC(=O)N(c2ccc(C(=O)O)cc2)C1=O (stereo not given)
→ -2.6, 5, -6, 5, 14%, 0.7%, 3
51	Cn1ncc2c(N)nc(NCCO)nc21
→ 0.0, -1, -21, -1, /, 0.2%, /
52	COC(OC)C1(CCc2ccccc2)NC(=O)NC1=O (stereo not given)
→ 0.7, 10, -1, 3, /, 0.5%, /
53	O=C(c1ccccc1C(=O)N(c1ccccc1)c1ccccc1)N1CCCCC1
→ 0.9, 0, 2, 3, 8%, 1.1%, -2
54	CCn1cc(CN2CCN(CCc3ccccc3)C(CCO)C2)c(C)n1 (stereo not given)
→ -2.1, 14, -17, 11, 18%, 0.1%, -18
55	O=C(NCCc1csc(-c2cccnc2)n1)c1cccc(Cl)c1
→ 6.8, -4, -8, -12, 6%, 0.4%&-1.7%, ?
56	O=C(CNC(=O)c1ccccc1F)Nc1ccncc1
→ -1.8, -1, -4, 5, /, 1.0%, -4
57	COc1ccc(N2C(=O)C3CCCN3C2c2cccc(OC)c2OC)cc1 (stereo not given)
→ -3.1, 2, -3, 6, 9%, -3.4%, -1
58	CC(=O)Nc1ccc(N(C(=O)CNC(=O)c2cccs2)C(C(=O)NC(C)(C)C)c2ccccc2)cc1 (stereo not given)
→ 0.5, 5, 4, 7, 8%, -0.8%, 1
59	COc1cccc(OCc2cc(C(=O)NCCN3CCCCC3CO)no2)c1 (stereo not given)
→ 9.3, 8, ?, -1, 4%, 1.7%, -1
